PrP 5UTR inh: inhibition of PrP 5' UTR reporter expression. hit rate 0.35% among 340,000. AID 488862, 2010. cell-based PrP 5' UTR mRNA reporter, plate reader. inhibition, % (no concentration beside the values);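 active = every replicate at 50% or more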;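 note: 0 = median of the neutral control wells; tested in H4 reporter cells; numbers are from one replicate; inactives centre near -14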
Autofluor counter: compound fluorescence in toxin protease inhibitor counterscreen; compound autofluorescence counterscreen, microsphere flow cytometry; active compounds read high; fluorescence intensity (test concentration not listed); hit rate 3.1% among 360,000; AID 624483;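 active = at least 3 SD above the mean of all compounds, about 16000 in these data; inconclusive = too few beads counted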;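 note: 100 nL of 1 mM stock went into each well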
Sa ugtP lethal: growth inhibition of ugtP-null S. aureus, primary screen, RN4220 ugtP deletion, OD600. growth inhibition, % (no concentration beside the values). hit rate 0.54% among 330,000. AID 1259309, 2017. 16 h; some inactives read as strong as hits;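 active = z-score under -3 and OD600 up to 0.15 on both plates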;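 note: plate controls were untreated wells for no effect and antibiotic for full effect; wells of about 80 µL received 100 nL stock; the first replicate is given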
Sa RN4220 lethal: growth inhibition of S. aureus RN4220, primary screen, OD600; 16 h; inhibition, % (concentration not given with the values); hit rate 0.33% among 330,000; AID 1259311, 2017;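 active = z-score of -3 or lower and OD600 up to 0.18 on both plates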;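 note: plate controls were untreated cells for no effect and reference antibiotic for full effect; stock transfer was 100 nL into about 80 µL; one replicate is shown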
Mtb hypoxia inh: PubChem AID 1159583; M. tuberculosis hypoxia-regulated fluorescent reporter, fluorescence; fluorescence inhibition, % (no concentration beside the values); hit rate 0.1% among 300,000;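 active = 35 to 45% if threefold the growth effect, above 45% if 1.5-fold the growth effect; inactive = the rest, general growth blockers included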;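 note: wells of about 50 µL received 100 nL stock; 0% = vehicle wells and 100% = reference inhibitor wells; whole bacteria with a GFP reporter of the hypoxia response; strong numbers were not always called active; many hits fall short of the cut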
BJeLR lethal: MLPCN primary cell-based screen for lethality selective to Ras in HRASV12 cells; BJeLR (HRASV12) viability, CellTiter-Glo ATP luminescence, 48 h; reference of the scale not given here; inhibition, % (concentration not given with the values); hit rate 0.17% among 300,000;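 active = replicate mean above 50%; inconclusive = above 50% but judged a plate artefact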;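 note: 50 nL library stock added to about 25 µL; numbers are from one replicate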
Mtb hypoxia inh growth: recorded beside Mtb hypoxia inh, whose call it bears; growth inhibition, %; measured here: M. tuberculosis growth (absorbance);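 0% = vehicle and 100% = reference antibiotic; read after six days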
* hit, by the source's call; u = inconclusive; x = not tested or not shown; & = joins results of further samples.

smiles,PrP 5UTR inh,Autofluor counter,Sa ugtP lethal,Sa RN4220 lethal,Mtb hypoxia inh,Mtb hypoxia inh growth,BJeLR lethal
Cc1ccc(C(N)=O)cc1S(=O)(=O)Nc1cccc(C)c1C,-38,9921,-2,7.9,-4,1,-3
COc1ccc(-n2c(CN3CCN(Cc4ccccc4)CC3)nc3ccc([N+](=O)[O-])cc3c2=O)c(OC)c1,2,3644,-2,-1.6,-3,0,-11
Cc1c(Cl)cccc1NC(=O)CNC(=O)c1ccc(F)cc1,9,8672,5,4.2,5,7,12
Cc1ccc(S(=O)(=O)N2[C@@H](c3ccc(Br)cc3)C(C(=O)O)=CC[C@H]2c2ccc(Cl)cc2)cc1,-2,3617,16,19,-2,-2,x
C#CCSc1nc(=O)c2cccnc2n1-c1ccc(C)cc1,-2,4378,15,1.6,7,-5,-7
CCOc1ccc(-c2nnc(SCC(=O)O)n2Cc2ccccc2)cc1,-39,4438,x,x,x,x,-3
CN1CCC2(CC1)C(C#N)=C(N)NC(S)=C2C#N,-9&-13,4567&2605,3&-2,3.4&2.9,18&16,3&6,13
CCCNC(=O)CCn1cc(-c2ccc(OC)cc2)nc1-c1ccncc1,-10,4010,3,8.7,1,7,3
Cc1cccc(C)c1NC(=O)CNc1ccccc1,-28,9219,-14,0.3,0,8,7
CCN(CC(=O)Nc1ccc(OC)cc1)C(=O)Cc1ccsc1,4,u,8,2.4,25,1,x
O=C(NNC(=O)C12CC3CC(CC(C3)C1)C2)c1csc(N2CCOCC2)n1,-1,5831,2,3.9,8,2,-3
COc1cc(Cl)ccc1OCc1cc(C(=O)N(C)CCc2cnn(C)c2)no1,-90,5372,8,8.1,8,7,8
CCOc1ccc(C(C)=O)cc1N1C(=O)C2C3C=CC(C3=C(C)C)C2C1=O (configuration not stated),-8,11090,-2,1.2,-2,2,-12
O=S(=O)(c1ccc(F)cc1)N1CCN(S(=O)(=O)c2cccs2)CC1,-2,5988,0,-0.1,7,3,6
O=C(O)CSCC(=O)N1CCc2c([nH]c3ccccc23)C1C(F)(F)F (configuration not stated),-38,3296,7,6.1,-3,-3,-7
CCN(C(=O)COC(=O)c1cc(C)n(-c2ccc(F)cc2)c1C)C1CCS(=O)(=O)C1 (configuration not stated),-20,2774,4,-12,0,2,x
COc1ccccc1NC(=O)/C(N=Nc1ccc(C)c(S(=O)(=O)Nc2ccccc2Cl)c1)=C(\C)O,-13,3670,-12,5.8,12,14,x
Cc1cc([N+](=O)[O-])c(NC2CCCCC2)c([N+](=O)[O-])c1,-29,3930,13,5.0,9,15,13
CCC1CCCCN1S(=O)(=O)c1ccc(-n2cnnn2)c(C)c1 (configuration not stated),-24,2889,5,5.2,2,-5,-1
Cc1ccc(N2CCN(C(=O)C3CCN(S(=O)(=O)c4cccc5nsnc45)CC3)CC2C)cc1 (configuration not stated),-1,9037,14,1.6,-1,-15,x
CCOC(=O)c1ccc(NC(=O)CSc2nnc(C3CC3)n2C)cc1,-10,3110,1,7.2,x,x,2
COC(=O)C1=C(C)N(Cc2ccccc2)C(=O)N[C@H]1c1ccccc1,-1,2863,x,x,x,x,-7
Cc1ccc(/C=N/NC(=O)Cn2cncn2)cc1,-34,4955,x,x,x,x,-12
N#CCC(=O)N/N=C/c1ccc(OC2CSC2)cc1,-19,3500,x,x,x,x,3
COc1cccc(N/C(N)=N/c2nc(C(F)(F)F)cc(=O)[nH]2)c1,-25,2515,-1,12,0,4,8
O=C(NC(C(Cl)Cl)N1CCOCC1)c1ccccc1 (configuration not stated),-11,2496,0,1.2,-1,1,0
CCN(Cc1ccccc1)C(=O)COC(=O)Cn1cnc2ccccc21,-16,3338,5,4.9,10,-4,-10
COc1ccc(CN2C(=O)CN(C3CCCCCC3)C(=O)C2c2ccc(F)cc2)cc1 (configuration not stated),-19,10567,15,4.2,4,0,3
O=C(CCS(=O)(=O)c1ccccc1)NNC(=O)COc1ccc(F)cc1,-19,3516,4,3.5,8,7,x
Cc1ccc(S(=O)(=O)CCc2nc3ccccc3[nH]2)cc1C,-13,5083,3,9.0,-11,-11,1
C[C@]12CCC3c4ccc(O)cc4CCC3C1CC/C2=N\N (some centres not stated),-13,5978,x,x,x,x,-6
COc1ccccc1/C=C/C(=O)OCC(=O)NC(=O)NC1CCCC1,-13,3021,4,3.7,11,7,x
CN1OC[C@@H]2COc3ccc4ccccc4c3[C@@H]21,-6,4047,x,x,x,x,4
Cc1csc(SCC(=O)Nc2cc(S(=O)(=O)N(C)C)ccc2C)n1,-5,6234,6,5.5,7,8,-1
Cc1ccc(S(=O)(=O)NCC(c2ccco2)N2CCOCC2)cc1 (configuration not stated),-13,2305,1,2.2,4,-4,-3
Cc1ccc(CCNC(=O)c2cc(-c3ccncc3)nc3ccc(S(=O)(=O)N4CCOCC4)cc23)cc1,-8,4696,18,7.7,-6,1,1
CC(=O)N1c2ccc(S(=O)(=O)N(C)CC(=O)NCc3ccccc3)cc2CC1C (configuration not stated),-14,4193,15,6.8,4,6,-3
O=c1ccsn1Cc1ccccc1,-10,3104,88*,3.9,7,1,2
O=C(CSc1nc2ccccc2[nH]1)Nc1ccc2c(c1)OCCO2,-21,3479,-4,-1.6,4,8,-8
Cc1cc[n+](-c2[nH]c(=O)sc2/C=N/N=C(\[O-])c2ccncc2)cc1,-17,5304,x,x,x,x,-10
S=c1[nH]nc(-c2ccco2)n1-c1cccc2ccccc12,-4,2478,15,9.6,x,x,-8
COCCCNC(=O)Cn1nnc(-c2ccccc2NC(=O)c2ccccc2F)n1,-3,7962,2,1.3,1,-3,-4
Cc1cccc(NCCC#N)c1,-18,2407,6,1.6,3,-4,7
O=C1CSC(c2cn(-c3ccccc3)nc2-c2cccs2)N1Cc1ccccc1 (configuration not stated),x,x,-7,-17,-2,2,-5
N#CCC(CNc1ncc(C(F)(F)F)cc1Cl)OC(=O)c1cccc([N+](=O)[O-])c1 (configuration not stated),-29,11292,-27,-11,-11,-18,8
CCOc1ccc(Nc2nnc(SCc3nc4ccccc4c(=O)[nH]3)s2)cc1,-27,5088,-5,7.5,6,-8,-1
CCCNC(=O)CN1C(=O)c2ccccc2Sc2ncccc21,-24,3990,10,1.2,9,9,8
Cc1cccc(N=Cc2c(O)n(-c3ccccc3C)c(=O)[nH]c2=O)c1,-9,9538,-1,4.7,16,4,-6
COc1c(C)cc(C(=O)C2CCCN(C(=O)C3=C(C)OCCO3)C2)cc1C (configuration not stated),-5,4565,3,2.9,10,0,6
COC(=O)c1ccc(Cl)c(-c2ccc(C=NNC(=O)Nc3ccccc3)o2)c1,x,x,-23,8.1,-14,5,x
CC(C)(C)NC(=O)/C(=C\c1ccc(Br)cc1)NC(=O)c1cccs1,-12,2325,2,2.5,x,x,7
Cc1ccc2c(CC(=O)NCC(=O)Nc3c(C)cccc3C)coc2c1,-15,4079,-1,2.9,7,4,-4
CCCc1nc2sc3c(=O)[nH]cnc3c2c2c1CCCC2,x,x,6,2.7,5,-9,-10
O=C(O)C(=O)Nc1nc(-c2ccc3c(c2)OCCO3)cs1,-43,u,3,5.1,-1,-1,-5
COc1ccc(NC(=S)NCc2cccnc2)cc1,-24,4223,11,5.9,2,-1,1
CCOC(=O)C1=C(C)Nc2ccccc2N=C1NC(=O)C1CCN(C(=O)c2ccccc2C)CC1,4,3784,6,3.9,7,5,x
C=CCOc1ccccc1C1C2=C(CC(C)(C)CC2=O)Nc2c1c(=O)n(C)c(=O)n2C (configuration not stated),-1,3391,-5,-14,5,17,-7
CCCCN(C(=O)c1cc(S(=O)(=O)N2CCCCC2)ccc1Cl)c1c(N)n(CCC)c(=O)[nH]c1=O,-7,3874,2,4.8,-5,-3,x
C/C=C/C(=O)Nc1nnc(-c2ccccc2C)s1,-24,2506,-14,1.4,9,11,-5
CC1CCN(S(=O)(=O)N2CCC(C(=O)NCc3cccs3)CC2)CC1,-10,8300,10,3.1,6,4,5

Reformatted with values under each structure: entries from further up
Every second line gives: PrP 5UTR inh	Autofluor counter	Sa ugtP lethal	Sa RN4220 lethal	Mtb hypoxia inh	Mtb hypoxia inh growth	BJeLR lethal
- Cc1cccc(N=Cc2c(O)n(-c3ccccc3C)c(=O)[nH]c2=O)c1
 : -9	9538	-1	4.7	16	4	-6
- COc1c(C)cc(C(=O)C2CCCN(C(=O)C3=C(C)OCCO3)C2)cc1C (configuration not stated)
 : -5	4565	3	2.9	10	0	6

Following part
smiles,PrP 5UTR inh,Autofluor counter,Sa ugtP lethal,Sa RN4220 lethal,Mtb hypoxia inh,Mtb hypoxia inh growth,BJeLR lethal
CCC(CO)NCc1ccc2c(c1)n(C)c(=O)n2C (configuration not stated),-2,16488*,-1,0.9,-6,0,-1
COc1ccc(-c2cc(C(F)(F)F)n3nc(C(=O)N4CCOCC4)nc3n2)cc1,-6,2527,7,0.1,x,x,2
Cn1c(=O)c2c(nc(SCCN3CCCCC3)n2C)n(C)c1=O,-13,4690,7,4.2,3,10,-15
C[N+]1(C)CC2([N+](=O)[O-])CC=C(Oc3ccccc3)C([N+](=O)[O-])(C2)C1 (configuration not stated),-16,9724,2,4.6,3,5,8
CCS(=O)(=O)c1nc(S(=O)(=O)c2ccc(C)cc2)c(N2CCN(CCO)CC2)s1,-6,3179,8,2.9,-6,-6,-5
O=C(NCc1ccc(Cl)cc1)c1n[nH]c([N+](=O)[O-])c1Cl,-13,2293,x,x,x,x,5
COc1ccc(CC(=O)OCc2cc(=O)n3cc(Br)ccc3n2)cc1OC,4,4507,3,3.5,-12,8,-6
CCn1c(CSc2nc3ccccc3s2)nnc1SCC(=O)c1ccc(O)cc1O,7,4236,-6,5.2,-1,12,0

Look-ups from the results shown:
Sa ugtP lethal result of C[N+]1(C)CC2([N+](=O)[O-])CC=C(Oc3ccccc3)C([N+](=O)[O-])(C2)C1 (configuration not stated) → 2
PrP 5UTR inh result of O=C(NCc1ccc(Cl)cc1)c1n[nH]c([N+](=O)[O-])c1Cl → -13
Sa ugtP lethal result of COc1ccc(-c2cc(C(F)(F)F)n3nc(C(=O)N4CCOCC4)nc3n2)cc1 → 7
Mtb hypoxia inh result of COc1ccc(CC(=O)OCc2cc(=O)n3cc(Br)ccc3n2)cc1OC → -12

Compounds from the list above with bromine (three):
smiles,PrP 5UTR inh,Autofluor counter,Sa ugtP lethal,Sa RN4220 lethal,Mtb hypoxia inh,Mtb hypoxia inh growth,BJeLR lethal
Cc1ccc(S(=O)(=O)N2[C@@H](c3ccc(Br)cc3)C(C(=O)O)=CC[C@H]2c2ccc(Cl)cc2)cc1,-2,3617,16,19,-2,-2,x
CC(C)(C)NC(=O)/C(=C\c1ccc(Br)cc1)NC(=O)c1cccs1,-12,2325,2,2.5,x,x,7
COc1ccc(CC(=O)OCc2cc(=O)n3cc(Br)ccc3n2)cc1OC,4,4507,3,3.5,-12,8,-6

Bioassay records from PubChem.
